MgrA-DNA mod – modulators of Staphylococcus aureus MgrA DNA binding | fluorescence polarization | AID 602314 | 84,000 tested, 0.13% active | inhibition, %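 (about 10 µg/mL by stock and volumes)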;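 active = above 50% in either of two replicates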;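 also: 0% = protein plus DNA without compound and 100% = DNA alone without protein; higher means less MgrA bound to DNA so lower polarization; one replicate is shown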
Sa helicase inh – S. aureus DNA helicase inhibition | purified S. aureus helicase, fluorescence unwinding assay; about half of the hits fall short of the stated cut | inhibition, %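 (tested at about 80 µM)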 | 120,000 tested, 0.05% active;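 active = both duplicates at 50% or more, or one of them with a favoured structure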;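 also: 0% = mean of negative control wells and 100% = mean of positive control wells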
Active calls of the source: *; x = no result given. This is a subset; count on the stated rates, not on these rows.

The first 5 entries, to show the layout:
Below each SMILES – Sa helicase inh, MgrA-DNA mod
COc1cc2c(cc1OC)C1(CCC(O)CC1)CN(C)C2 (stereo not given)
    17, 4.1
O=[N+]([O-])c1ccccc1-c1nnc(-c2ccc(Cl)cc2)o1
    x, 1.1
CCc1ccc2oc(-c3ccc(N)cc3)nc2c1
    11, 0.0
CC(C)(C)OC(=O)N1CCN(c2ccc(NS(=O)(=O)c3ccc(Cl)cc3)cn2)CC1
    x, -1.1
C=C(C)Cn1c(CCNC(=O)c2cccs2)nc2ccccc21
    -20, x

The whole of this part (from the top)
Below each SMILES – Sa helicase inh, MgrA-DNA mod
COc1cc2c(cc1OC)C1(CCC(O)CC1)CN(C)C2 (stereo not given)
    17, 4.1
O=[N+]([O-])c1ccccc1-c1nnc(-c2ccc(Cl)cc2)o1
    x, 1.1
CCc1ccc2oc(-c3ccc(N)cc3)nc2c1
    11, 0.0
CC(C)(C)OC(=O)N1CCN(c2ccc(NS(=O)(=O)c3ccc(Cl)cc3)cn2)CC1
    x, -1.1
C=C(C)Cn1c(CCNC(=O)c2cccs2)nc2ccccc21
    -20, x
C=CCNc1ncnc2c1cnn2-c1ccccc1
    -2, x
O=c1[nH]c2ccc(N=Cc3ccc4c(c3)OCO4)cc2[nH]1
    -4, 2.5
c1ccc2sc(Cc3nc4ccccc4s3)nc2c1
    x, -1.8
Fc1ccc(-n2cccc2)cc1
    x, -1.5
CC(=O)Nc1ccc(N2COc3ccc(NC(C)=O)cc3C2)cc1
    9, -3.6
NC1=NC2(CCN(Cc3ccccc3)CC2)n2c(nc3ccccc32)N1
    11, 1.9
C[N+]1(c2cccc(C(F)(F)F)c2)CCC(N)=N1 (stereo not given)
    19, 1.5
Nc1c(Cl)ncnc1NCCCn1ccnc1
    30, x
CCOC(=O)C1=C(O)CSC1=Nc1ccccc1
    10, x
CCSc1ccccc1C(=O)N1CC(=O)Nc2ccccc21
    0, -1.1
CC(=O)N1N=C(c2ccccc2)CC1c1cc2cc3c(cc2nc1Cl)OCO3 (stereo not given)
    10, x
O=C(O)CCNc1cc(C(=O)O)ccc1C(=O)O
    -14, x
COc1ccc(CCNC(=O)c2c(-c3ccccc3Cl)noc2C)cc1OC
    x, -0.5
COc1ccc2cc(COC(=O)c3c(OC)cccc3OC)c(Cl)nc2c1
    9, x
O=C(N=C1c2ccccc2CN1c1ccc(F)c(F)c1)c1cccnc1
    -13, -1.6
CC1(C)CC(=O)c2sc3nc(-c4ccc(Cl)cc4)cn3c2C1
    13, -6.7
CCCSc1nnc2c(n1)OC(/C=C/c1ccc([N+](=O)[O-])o1)Nc1ccccc1-2 (stereo not given)
    x, 14
COc1ccc(CCNC(=O)C2COc3ccccc3O2)cc1 (stereo not given)
    -6, 0.2
O=C(/C=C/c1ccc(F)cc1)OCC(=O)c1ccccc1
    5, -1.1
COc1ccccc1N1CC(C)(C)C(=O)N(C(=O)c2ccc(C)cc2)C1=S
    x, 4.5
Cc1ccc(-n2ncc3c(=O)n(CC(=O)NC4CCCCC4)cnc32)c(C)c1
    10, x
Cc1ccccc1N=Cc1sc2ccccc2c1O
    -109, x
O=C(O)CONS(=O)(=O)c1ccc(F)cc1
    7, x
O=C(Nc1nnc(-c2ccccc2)s1)c1cccc(C(F)(F)F)c1
    10, x
COc1c(/C=C2/SC(=Nc3ccccc3)NC2=O)cccc1[N+](=O)[O-]
    x, 1.9

The closing 7 records of the section above are carried over, then new ones follow:
Below each SMILES – Sa helicase inh, MgrA-DNA mod
O=C(/C=C/c1ccc(F)cc1)OCC(=O)c1ccccc1
    5, -1.1
COc1ccccc1N1CC(C)(C)C(=O)N(C(=O)c2ccc(C)cc2)C1=S
    x, 4.5
Cc1ccc(-n2ncc3c(=O)n(CC(=O)NC4CCCCC4)cnc32)c(C)c1
    10, x
Cc1ccccc1N=Cc1sc2ccccc2c1O
    -109, x
O=C(O)CONS(=O)(=O)c1ccc(F)cc1
    7, x
O=C(Nc1nnc(-c2ccccc2)s1)c1cccc(C(F)(F)F)c1
    10, x
COc1c(/C=C2/SC(=Nc3ccccc3)NC2=O)cccc1[N+](=O)[O-]
    x, 1.9
COc1cccc(/C=C2\N=C(SC)SC2=O)c1
    4, 1.4
Cc1cc(C(=O)COC(=O)c2ccc(S(=O)(=O)N3CCCC3)cc2)c(C)n1Cc1cccs1
    17, x
Cc1ccccc1OCCNC(=O)c1ccco1
    11, -4.2
CCN(CC)S(=O)(=O)c1ccc(N2CCc3ccccc32)nc1
    -5, x
O/N=C1\CCCc2nnc3c(c21)CCCC3
    -3, 0.5
CCOc1ccc(CO)cc1OCC
    -13, x
CC(=O)Nc1cc2cc([N+](=O)[O-])ccc2oc1=O
    x, 0.7
NCCCc1nc2ccc(Cc3ccc4nc(CCCN)[nH]c4c3)cc2[nH]1
    19, x
CC(C)OCC(O)CNc1ccccc1 (stereo not given)
    0, x
Cc1nnc(SCC(=O)c2cc(C)n(C(C)c3ccccc3)c2C)n(N)c1=O (stereo not given)
    13, x
NC(CCc1ccccc1Cl)c1ccc2c(c1)OCCO2 (stereo not given)
    x, -2.2
O=c1c2ccccc2nnn1CN1CCN(S(=O)(=O)/C=C/c2ccccc2)CC1
    -10, x
O=C(NCc1ccccc1)c1cn(-c2ccccc2)nc1-c1cccs1
    9, x
Cc1noc(C)c1CSCC(=O)OCc1cc(=O)n2c(n1)sc1ccccc12
    9, x
CCN1CCN(c2cc(C)c3ccc(OC)cc3n2)CC1
    11, -1.2
c1ccc(CNc2nc3ccccc3n3nnnc23)cc1
    -94, x
COC(=O)COc1nc(C)nc2c1sc1nc(C)cc(C)c12
    2, x
O=C(COC(=O)c1cccc(S(=O)(=O)N2CCCCC2)c1)NCc1ccccc1
    12, x
O=C1CCC2(C(=O)O)SCCN12 (stereo not given)
    9, x
COCC(=O)N1CCC(n2nnc3cc(F)ccc32)CC1
    4, 0.6
CCc1ccc(N2C(=O)C3CCCN3C2=S)cc1 (stereo not given)
    12, 4.3
C=CCn1c(=N)n(CC(O)c2cccc(Br)c2)c2ccccc21 (stereo not given)
    11, x
O=C(NCCCSc1ccccc1)Nc1ccccc1
    21, x
N#CCCn1cc(/C=C/C(=O)N2CCC(c3nc4ccccc4s3)CC2)c2ccccc21
    14, x
CCOC(=O)c1sc2ccccc2c1Cl
    x, 2.0
CCOC(=O)Cn1nc(NC(=O)COc2ccc(F)cc2)cc1C
    21, 0.2
CC(=O)N1N=C(CC#N)OC1(C)CC(=O)Nc1ccccc1 (stereo not given)
    5, x
CCn1nc(C)cc1C(=O)OCC(=O)c1ccc(Cl)cc1
    x, -0.9
CCOC(=O)c1cc2c(c(CSc3nc4ccccc4c(=O)n3CCN3CCOCC3)c1)OCOC2
    9, x
O=C(CN1CCN(C/C=C/c2ccccc2)CC1)Nc1ccccc1C(=O)NC1CC1
    -23, x

Additional entries.
Below each SMILES – Sa helicase inh, MgrA-DNA mod
N#CCC1Nc2ccccc2S(=O)(=O)N1 (stereo not given)
    9, 4.2
Cn1nc(-c2ccc(Cl)cc2)c2ccccc21
    -3, -0.6
O=C1CCCC2=C1C(c1ccc(Cl)cc1)Nc1ccccc1N2 (stereo not given)
    -11, x
CC1=C(C(=O)OC2CCCC2)C(c2cc3c(cc2Br)OCO3)NC(=O)N1C (stereo not given)
    x, 4.8
O=C(c1cccs1)N1N=C2c3ccccc3CCC2C1c1ccccc1Cl (stereo not given)
    x, -2.6
COc1ccc(-c2cc(-c3ccccc3)c(C#N)c(SCCS(=O)Cc3ccccc3)n2)cc1 (stereo not given)
    6, 2.6
O=C(Nc1cccc(Cl)c1)C1CCN(c2ccc(C(F)(F)F)cn2)CC1
    -18, x
CN(C(=O)c1ccccc1)c1ccccc1
    15, 2.7
CCCC(=O)Nc1ccc(C(=O)CSc2nnc(Cc3ccccc3)o2)cc1
    15, x
O=S(=O)(NCc1ccccn1)c1cc(OCC(F)(F)F)ccc1OCC(F)(F)F
    x, 0.6
O=C(COc1ccccc1)ON1C(=O)CCC1=O
    x, -3.2
COc1cc(C(=O)NC(C(C)C)C(C)C)cc(OC)c1OC
    -2, -0.5
O=C(O)/C=C/c1ccc(-c2ccccc2)s1
    33, x
C=CCOC(=O)c1sc(N2CCCC2=O)c(C(=O)OCC)c1C
    1, x
CCSc1nc(N)c(C#N)c(-c2ccco2)c1C#N
    -14, x
CCOC(=O)C1CCCN(c2nc3ccccc3nc2C(C#N)C(=O)OC)C1 (stereo not given)
    -15, x
COc1ccc(-n2cnnc2SCC(=O)N2CCN(S(=O)(=O)c3ccccc3)CC2)cc1
    4, x
N#CCc1ccc(OCc2cc(C(F)(F)F)cc(C(F)(F)F)c2)cc1
    x, 0.7
Cc1nn(CC(=O)N2CCC(C)CC2)c(C)c1S(=O)(=O)N1CCOCC1
    -6, x
CCOC(=O)N1CCc2c(sc3c2c(=O)n(-c2ccc(CC)cc2)c(=O)n3CC(=O)NCC2CCCO2)C1 (stereo not given)
    15, x
Cc1[nH]c(=O)[nH]c(=O)c1S(=O)(=O)N1CCC(C(=O)NC(C)c2ccccc2)CC1 (stereo not given)
    13, -0.2
COc1ccccc1NC(=O)C(C)SC1CCCC1 (stereo not given)
    -12, x
Nc1nc(SCc2ccccc2)n[nH]1
    x, -2.7
OCc1nc2ccccc2n1Cc1ccccc1Cl
    16, -1.8
CC(C)CC(=O)n1c(=O)oc2ccccc21
    9, x
CCCCC/C=C\C/C=C\CCCCCCCC(=O)O
    x, 0.8
O=C1CCC(C(=O)NCCc2ccc(Cl)cc2)=NN1
    -5, x
CCOC(=O)c1noc2ncnc(NCCc3ccccc3)c12
    19, x
CCn1c(-c2ccc(OC)cc2)csc1=Nc1ccc(NC(C)=O)cc1
    -9, x
O=C(NCCc1ccccc1)N1CCn2cccc2C1c1ccccc1 (stereo not given)
    7, x

The list continues:
Below each SMILES – Sa helicase inh, MgrA-DNA mod
COc1ccc(C2C(C(=O)O)CC(=O)N2c2ccc(OC)cc2)cc1 (stereo not given)
    29, x
COC(=O)c1ccc(-n2cccc2)cc1
    -11, x
CCOc1ccc(NC(C)C(=O)N/N=C/c2ccc(N(C)C)cc2)cc1 (stereo not given)
    -32, x
O=C(NCc1cn2ccccc2n1)c1ccccc1F
    9, x
Cc1ccc(-c2onc3ccc(C(=O)NCCO)cc23)cc1
    25, x
Cc1cc(OCC(F)(F)C(F)(F)C(F)(F)C(F)F)nc(N)n1
    1, -3.5
CS(=O)(=O)N1CCNCC1
    20, -1.5
O=C(Nc1ccccc1C(=O)NCCN1CCOCC1)c1ccc(Br)cc1
    9, x
Nc1n[nH]c(=O)c2cc(-c3ccc(Cl)cc3)[nH]c(=O)c12
    x, -3.0
CCn1c(CCCCCCN)nnc1SC
    4, x
C=CCOc1ccc(NC(=O)c2cccs2)cc1
    4, 6.5
N#Cc1c(/N=C/c2ccccc2)sc2c1CCCC2
    -9, 0.9
CCNS(=O)(=O)c1ccc(CCC(=O)NCc2ccco2)cc1
    6, -1.1
O=C(c1ccc(S(=O)(=O)N2CCCCC2)cc1)N1CCN(Cc2ccc3c(c2)OCO3)CC1
    -21, x
N#Cc1ccc(-c2c(N)oc(-c3cccs3)c2C#N)cc1
    x, 1.2
Cc1nc(-c2sc3ccc(Cl)cc3c2C)cs1
    x, -1.1
Cc1cc(C)c(NC(=O)CCCN2CCCC2)c(C)c1
    -13, x
CC(C#N)Oc1ccc(C(=O)c2ccccc2)cc1 (stereo not given)
    -5, x
Cc1c2c(cc3c4c(c(=O)oc13)CCCC4)CN(CCc1ccc(F)cc1)CO2
    7, 0.6
CCOC(=O)N1CCc2c(sc(NC(=O)CN3CCc4ccccc43)c2C#N)C1
    x, -0.3
CCN(CC)C(=O)c1cc(-c2ccc(O)cc2)on1
    8, x
C=C(Br)Cn1c(C(C)C)nc2ccccc21
    -7, x
C=CCn1c(=O)n(CC=C)c(=O)n(CC(=O)NC(C)COC)c1=O (stereo not given)
    5, x
CCOC(=O)c1ccc(N=Cc2c(O)cc(C)oc2=O)cc1
    10, x
CCOc1nc(Nc2ccc(OC)cc2)nc(N2CCOCC2)n1
    17, -1.4
CC(C)(C)C1=NN(c2ccccc2)C(=O)C1
    x, 0.9
CC(C)C(=O)OCC(=O)Nc1ccc2c(c1)CCC2
    13, x
CC(C)=NNc1nc2ccccc2[nH]1
    14, x
O=C(Cn1ncc2c([nH]c3ccccc32)c1=O)N(Cc1ccco1)C1CCCC1
    -25, x
S=C(NCc1ccco1)NCc1cccs1
    -2, x

The list continues.
Below each SMILES – Sa helicase inh, MgrA-DNA mod
CCn1cc(C(=O)N2CCCCCC2)c(=O)c2cc(S(=O)(=O)N3CCCCC3)ccc21
    -12, x
O=C1C(C=Nc2ccccc2)=C(O)c2ccccc21
    20, 0.9
Cc1cc(C(=O)Nc2sc(C)c(C)c2C#N)cs1
    8, -0.2
CCN1CCCC1CNc1nc2ccc(Cl)cc2n2cnnc12 (stereo not given)
    3, -0.4
O=C(NCCC(=O)N1CCCC1)Nc1ccc(Cl)c(Cl)c1
    -7, x
O=C(O)CC(C(=O)O)c1ccc(F)cc1 (stereo not given)
    10, -1.9
CC(CC(=O)NCc1ccccc1)C1CCCO1 (stereo not given)
    -3, -1.0
CC1(C)Cc2nc3sc(C(=O)NN)c(N)c3cc2CO1
    4, 4.0
O=C(O)COc1ccccc1S(=O)(=O)C(F)F
    -10, x
Cc1ccc(OCCOn2nnc3ccc(S(=O)(=O)N4CCOCC4)cc32)cc1
    20, x
COc1ccc(NC(=O)c2sc3nc(-c4cccs4)ccc3c2N)cc1OC
    -89, x
O=C(CCN1C(=O)/C(=C/c2ccc(Cl)cc2)SC1=S)Nc1cc([N+](=O)[O-])ccc1O
    x, 0.3
